CapD inh: CapD enzyme inhibition; purified CapD enzyme, fluorescence intensity read-out; hits give low values; some hits fall short of the stated cut; z-score (no concentration beside the values); 0.23% of 140,000 active; AID 492967;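 active = z-score under -4 in either of two replicates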;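 note: stock transfer was 100 nL into about 40 µL; score is relative to mean and spread of the plate; one replicate is shown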
AID504770: E. coli YBA685 growth inhibition, screen for V. cholerae RctB inhibitors. 0.27% of 130,000 active. z-score (concentration not given with the values). E. coli YBA685 rctB-dependent plasmid, OD600 growth, 3 h; hits give low values. AID 504770;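 active = z-score under -2 on both plates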;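 note: wells of about 30 µL received 100 nL stock; score is relative to mean and SD of the test wells; the first replicate is given; strong numbers were not always called active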
Numbers without * were called inactive; nt = not tested or not shown.

Compound	CapD inh	AID504770
O=C(NC1CCCc2ccccc21)C1COc2ccccc2O1 (stereo unspecified)	nt	0.1
CCC(=O)NCCc1nc2ccccc2n1C	-0.2	-1
CCOC(=O)c1noc2c1C1=NCCN1C=N2	-0.31	-1.1
Cc1nc2ccc(N=NC3=C(O)CC(C)(C)CC3=O)cc2s1	nt	0.55
O=C(N/N=C/c1ccc2c(c1)OCCO2)c1ccc([N+](=O)[O-])cc1Cl	-1.02	nt
Cc1ccccc1-c1nnn(-c2nc(CN3CCOCC3)nc3sc4c(c23)CCCC4)n1	nt	-0.05
Clc1ccc2ncnc(-c3ccccc3)c2c1	0.405	-2.3
Cc1ccc(S(=O)(=O)N(Cc2cccc(Oc3ccc(Cl)cc3)c2)Cc2ccco2)cc1Cl	-0.22	nt
CC1CC1c1ccc(CCC(=O)O)o1 (stereo unspecified)	nt	-0.5
Cc1sc(=[N+]2CCCCC2)sc1SCCC(=O)O	-0.55	-0.05

Reformatted with each value named: 3 of the compounds above.
> O=C(NC1CCCc2ccccc21)C1COc2ccccc2O1 (stereo unspecified)
- CapD inh = nt
- AID504770 = 0.1

> CCC(=O)NCCc1nc2ccccc2n1C
- CapD inh = -0.2
- AID504770 = -1

> CCOC(=O)c1noc2c1C1=NCCN1C=N2
- CapD inh = -0.31
- AID504770 = -1.1

(continued)
Compound	CapD inh	AID504770
COC(=O)[C@H](c1ccccc1Cl)N1CCc2sccc2C1	0.985	0.1
O=C(CSc1nc2ccccc2c(=O)n1-c1ccc(C(=O)N2CCOCC2)cc1)c1ccc(Br)cc1	0.145	nt
Cc1cnn(C(=O)c2cc3ccccc3oc2=O)c1	1.04	-0.55
O=C(O)Cc1ccc(S(=O)(=O)N2CCCC2)s1	nt	-1.4
COc1cc(S(=O)(=O)N2CCOCC2)cc(C(=O)c2nccn2C)c1OC	nt	-0.05
Cn1c(=O)n(CC(=O)N2CCN(c3ccccn3)CC2)c(=O)c2ccccc21	1.66	nt
CC(NC(=O)CSc1cccc[n+]1[O-])c1ccccc1 (stereo unspecified)	-1.05	-0.6
COc1cccc(OC)c1CNC(=O)CNS(=O)(=O)c1cccc(C(F)(F)F)c1	-0.125	nt
O=C(NCc1cccc(Cl)c1)c1nc2c(nnn2Cc2ccccc2)c(=O)[nH]1	0.185	0.1
CCOc1nc(Nc2ccc(Cl)cc2)nc(NC2CCCC2)n1	-0.3	nt
O=C(NC(CO)C(=O)O)c1ccccc1 (stereo unspecified)	-0.175	nt
CC1CCCN(C(=O)c2ccc3ncsc3c2)C1 (stereo unspecified)	nt	1.05
COc1ccc(-c2noc(-c3ccc(OC)cc3)n2)cc1	-0.345	-0.2
O=C(NCCc1ccccc1)c1cc2ccccc2oc1=O	-0.005	0.55
CCc1nnc(NC(=O)CN2C(=O)CC(C)(C)Sc3ccccc32)s1	-0.465	-0.2
CC(NC(=O)c1ccc(=O)n(C)n1)C1CC2CCC1C2 (stereo unspecified)	nt	2
O=S(=O)(c1ccc(Br)s1)N1CCCN(c2nc3ccc(Cl)cc3s2)CC1	-0.74	nt
NC(=O)c1ccccc1C(=O)c1ccccc1	-0.03	1.25
Fc1ccc(-n2cccc2)c(F)c1	0.165	nt
CCOC(=O)c1cnc2c(C)cc(C)cc2c1Nc1ccc(S(=O)(=O)Nc2ncccn2)cc1	3.58	-0.25
O=C(N=C1c2ccccc2CN1c1ncccn1)c1cccc(F)c1	-0.475	-0.4
Nc1c(N2CCOCC2)ccc2nsnc12	-0.885	2.3
COc1ccc(OC)c(N2C(=N)/C(=C(/O)c3ccccc3)C(c3ccc4c(c3)OCO4)C3=C2CCCC3=O)c1 (stereo unspecified)	-0.275	nt
COc1ccc(Nc2nc(N)nc(CSC(=S)N(C)C3CCCCC3)n2)cc1	-0.665	0.65
Cc1cc(C)cc(N2C(=O)C3C(c4ccccc4Cl)OC4(C(=O)c5ccccc5C4=O)C3C2=O)c1 (stereo unspecified)	-0.525	nt
Cc1nc2c(C)cccn2c1C(=O)Nc1ccc(F)cc1F	0.23	0.1
O=C1OC(/C(=C\Nc2cc(Cl)cc(Cl)c2)[N+](=O)[O-])c2ccccc21 (stereo unspecified)	-0.79	nt
O=C(Nc1ccc(C(F)(F)F)cn1)c1cccnc1Oc1ccc(Cl)cc1	1.11	-0.5
CC(CC(=O)O)CC(=O)N1CCN(C(=O)c2ccc(F)cc2Cl)CC1 (stereo unspecified)	0.16	nt
CC(C)CCNc1ccc(-c2ccc(Cl)cc2)nn1	nt	0.4
C=C(C)Cn1c(SCC(=O)NN)nc2ccccc2c1=O	-0.065	-0.5
NCCSc1c[nH]c2ccccc12	1.58	-1.1
CCOC(=O)Nc1ccc(Cl)cc1	nt	0.85
c1ccc(CN2CCN(Cc3ccccc3)C2c2ccco2)cc1	-0.095	-1.5
Cn1c2c(c(=O)[nH]c1=O)C(c1ccccc1)C1=C(N2)c2ccccc2C1=O (stereo unspecified)	0.45	nt
CCc1ccc(C(=O)CSc2ccccc2C(=O)O)cc1	-0.235	-0.3
C/C(=N\O)C(C)(C)Nc1ccc(Br)cc1	0.03	1.2
Cc1cc(C)nc(SCCSc2nc(C)cc(C)n2)n1	nt	0.25
O=C(CSc1nc2ccccc2n1S(=O)(=O)c1cccc([N+](=O)[O-])c1)NCc1cccs1	0.035	nt
N#CC1=C(SCC(=O)Nc2ccc(Cl)c(Cl)c2)NC(=O)CC1c1ccccc1 (stereo unspecified)	-0.015	nt

Remaining list, next part
Value order: CapD inh | AID504770
CC1CCCCN1C(=S)NC(=O)c1ccco1 (stereo unspecified)
  nt | -1.4
CC(C)OC(=O)c1nnn(-c2nonc2N)c1CN1CCCCC1
  0.02 | nt
CS(=O)(=O)N(Cc1ccccc1)c1ccccc1C(=O)NC1CCCC1
  0.635 | 0.45
COc1ccc(-c2nc3ccccc3n2OCc2ccc(Cl)c(Cl)c2)cc1
  0.605 | nt
Cc1nn2c3ccccc3n(C)c2c1C(=S)Nc1ccccc1
  -0.265 | 1.6
Cc1ccc(-c2ccnc(-c3ccc(OCc4ccc([N+](=O)[O-])cc4)cc3)n2)cc1
  0.1 | nt
CCSCCOC(=O)C1=C(C)NC2=C(C(=O)CC(c3ccccc3)C2)C1c1ccc([N+](=O)[O-])cc1 (stereo unspecified)
  -0.925 | nt
CCCN(CCC)C(=S)Nc1ccccc1
  0.545 | 0.85
CC1(C(=O)N2CCC(O)(c3ccc(Br)cc3)CC2)CCC(C(=O)O)C1(C)C (stereo unspecified)
  0.35 | nt
COc1cc(C(=O)NCCC(=O)NC2CCCc3ccccc32)cc(OC)c1OC (stereo unspecified)
  -1.82 | 2.35
CC1CN(c2ccccc2)c2nc3c(c(=O)n(C)c(=O)n3C)n2C1 (stereo unspecified)
  nt | 0.35
COc1cccc(C=Nc2cccc3c(=O)[nH][nH]c(=O)c23)c1O
  nt | 0.65
CCC(C)NC(=O)c1cn(CC)c(=O)c2cc(OC)c(OC)cc12 (stereo unspecified)
  -0.705 | -0.25
COc1ccccc1NC(=O)NCCSCc1ccc(S(C)(=O)=O)cc1
  -0.47 | nt
O=C(N/C=C/c1ccc(Cl)c(Cl)c1)NCc1cccc(Cl)c1
  -0.375 | nt
c1ccc2c(c1)sc1cccn12
  -0.675 | nt
COc1ccc2c(c1)c1nc3cc4ccccc4cc3nc1n2Cc1ccccc1
  -0.015 | nt
C=C(C)Cn1c(SCC(=C)Br)nc2sc3c(c2c1=O)CC(C)(C)OC3
  2.72 | nt
Clc1nc2ccc3nsnc3c2nc1Cl
  nt | -0.05
CN1/C(=C/C(=O)c2cccs2)C(C)(C)c2ccccc21
  0.505 | -0.65
CNC(=S)N/N=C/c1cc(OC)c(OC)cc1OC
  nt | -0.15
CCCSc1cc(=O)n(-c2ccccc2)nc1C(=O)Nc1cccc(Cl)c1
  -0.055 | nt
C=CCNC(=O)N1CCc2[nH]c3ccc(F)cc3c2C1
  0.32 | -0.95
Cc1cc(C(F)(F)F)c(C#N)c(SCC(=O)Nc2ccccc2C)n1
  -0.095 | nt
CCOC(=O)N1CCC2(CC1)Oc1ccccc1C1CC(c3ccccc3)=NN12 (stereo unspecified)
  nt | -0.35
O=C(O)CCCc1c(-c2ccccn2)[nH]c2ccc(F)cc12
  53.3 | 0.55
O=c1[nH]c(O)c(N=Nc2ccccc2)s1
  nt | 1.05
CCCCn1c(C2CC(=O)N(c3ccccc3OC)C2)nc2ccccc21 (stereo unspecified)
  nt | -0.65
Cc1ccc(C23CC4CC(CC(C(=O)NC(C)C(N)=O)(C4)C2)C3)cc1 (stereo unspecified)
  0.445 | -0.2
COc1ccc(C(=O)O/N=C(/N)C2COc3ccccc3O2)cc1 (stereo unspecified)
  0.205 | -0.15

By substructure: those above with a nitro group on carbon (5)
Value order: CapD inh | AID504770
O=C(N/N=C/c1ccc2c(c1)OCCO2)c1ccc([N+](=O)[O-])cc1Cl
  -1.02 | nt
O=C1OC(/C(=C\Nc2cc(Cl)cc(Cl)c2)[N+](=O)[O-])c2ccccc21 (stereo unspecified)
  -0.79 | nt
O=C(CSc1nc2ccccc2n1S(=O)(=O)c1cccc([N+](=O)[O-])c1)NCc1cccs1
  0.035 | nt
Cc1ccc(-c2ccnc(-c3ccc(OCc4ccc([N+](=O)[O-])cc4)cc3)n2)cc1
  0.1 | nt
CCSCCOC(=O)C1=C(C)NC2=C(C(=O)CC(c3ccccc3)C2)C1c1ccc([N+](=O)[O-])cc1 (stereo unspecified)
  -0.925 | nt

Remaining list, next part:
Value order: CapD inh | AID504770
CCOC(=O)c1ccc(CNCc2ccccc2)cc1
  -0.28 | 2.2
O=C(CSc1nnc2ccccn12)Nc1ccc2c(c1)OC(F)(F)O2
  nt | 0.2
Cc1ccc(C(=O)Nc2nc3ccccc3c(=O)s2)cc1
  -0.215 | 0.55
CC1(C)CC(=O)c2ccc(OCC#N)cc2O1
  11.8 | 0.75
O=S(=O)(c1ccc2c(c1)OCCO2)N1CCN(c2ncccn2)CC1
  nt | -0.2
Cc1cc(C)c2nc3s/c(=C\c4cccc(OCc5ccc(Cl)cc5)c4)c(=O)n3c2c1
  0.33 | nt
Cc1cc(C)c(NC(=O)c2ccncc2)c(C)c1
  -0.625 | 1.95
C=CCOc1ccc(C2C3=C(CC(C)(C)CC3=O)OC3=C2C(=O)CC(C)(C)C3)cc1OC
  0.17 | nt
CCOC(=O)C1=C(C)NC2=C(C(=O)C(C(=O)OCC)C(c3cccc(OC)c3)C2)C1c1cccc([N+](=O)[O-])c1 (stereo unspecified)
  -0.255 | nt
CCCOc1nc(-c2ccccc2)cc(-c2ccccc2)n1
  -0.225 | -0.35
Cc1cc(C(=O)Nc2nc(C34CC5CC(CC(C5)C3)C4)cs2)no1
  3.7 | 0.05
O=C(O)C(Cc1c[nH]c2ccccc12)N1C(=O)CCC1=O (stereo unspecified)
  nt | -1.05
O=C(CCCCC1CCCCC1)NCc1cccs1
  -0.185 | nt
COc1cc(Br)c(CN2CCN(C(=O)OCCCCCCN(C)C)CC2)cc1OC
  -0.56 | nt
O=C1CC(c2ccccc2)Sc2ccccc2N1Cc1ccccc1 (stereo unspecified)
  0.45 | 1.45
CS(=O)(=O)c1ccc(NC(=O)CC2OC(=O)c3ccccc32)cc1 (stereo unspecified)
  nt | -0.35
O=C(CC(c1ccccc1)c1cc(Cl)ccc1O)N1CCOCC1 (stereo unspecified)
  0.305 | -0.6
O=C(O)CC1C=CS(=O)(=O)C1 (stereo unspecified)
  0.465 | -0.15
Cc1ccc(-c2cc(C(=O)Nc3cccc4c3CCCC4)[nH]n2)cc1C
  0.9 | 0.4
COc1ccccc1C(=O)Nc1ccon1
  1.42 | -0.55
Cc1ccc(S(=O)(=O)n2ccc(-c3ccc(OCCCF)cc3)n2)cc1
  0.165 | nt
ClCCOc1nc(N2CCOCC2)nc(N2CCOCC2)n1
  -0.68 | nt
C=CCN1C(=O)C2(C(C#N)=C(N)Oc3ccccc32)c2c1c1ccccc1oc2=O (stereo unspecified)
  -1.1 | 1.4
CCCCC(=O)Nc1nn2c(COc3ccc(C)cc3)nnc2s1
  -0.255 | -1.35
CCOC(=O)NC(=S)N1CCN(c2ccccc2)CC1
  0.23 | 0
CCN(CC)C(=O)c1ccc2c(c1)NC(=O)/C(=C/c1ccccc1)S2
  -0.535 | 0.05
O=c1oc2ccc([N+](=O)[O-])cc2cc1-c1nc(-c2ccc(Br)cc2)cs1
  -0.315 | nt
CC1(C)CC2CC(C)(CN2C(=O)CN2C(=O)c3ccccc3C2=O)C1 (stereo unspecified)
  1.08 | -0.3
O=C1NC(=S)NC(=O)C1=C/C=C/c1ccco1
  -11* | 0.8
NC(=O)NC(=O)CSc1nc(N)cc(=O)[nH]1
  nt | -2.35
CCOC(=O)c1cc(-c2ccc(S(=O)(=O)NCCCN3CCOCC3)s2)on1
  0.13 | -0.2
O=C1CCC(=O)N1CN1CCN(c2ccccc2)CC1
  nt | 1.35
C=CCn1c(NCc2ccccc2OC)nc2ccccc21
  0.62 | 0
O=C(c1csc(-c2cnccn2)n1)N1CCN(C(c2ccc(F)cc2)c2ccc(F)cc2)CC1
  -0.795 | nt
CCOC(=O)c1ccc2c(c1)[nH]c(=S)n2CC
  nt | 0.15
O=C(Nc1cccc(-c2nc3cccnc3s2)c1)C1CC1
  -0.08 | 0.3
CC(C)(O)C#CC(O)c1cccs1 (stereo unspecified)
  0.355 | 0.45
c1nc(NN2CCCCC2)c2sccc2n1
  -0.94 | -0.8
Brc1ccc2cc(Oc3cnccn3)ccc2c1
  nt | -0.2

Assay outcomes deposited in PubChem by ICCB-Longwood Screening Facility, Harvard Medical School.
